Screening data (PubChem)
TRPML1 blocker = qHTS for Inhibitors of the Human Mucolipin Transient Receptor Potential 1 (TRPML1); activity change, negative = inhibition, % (concentration not given with the values); hit rate 0.02% among 390,000; TRPML1-inducible cells, Ca2+ dye fluorescence, FDSS; hits give low values; inhibition of EC80 agonist-evoked calcium signal; in the data active means activity change below about -50%; inconclusive means about -30% to -50%; inactive means above about -30%;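 further: stimulus is agonist 54-4 at its EC80 concentration; on the % scale 0 is the no-effect control and ±100 the full control effect; compound concentration not given in the record; the text of the record puts the active cut at -80%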
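Calcium fluorescence in TRPML1-DL cells induced overnight with Tet: a 110 s read after compound pin addition, then a 110 s antagonist read after challenge with 54-4 at 4 uM final (EC80).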
D2 agonist = Beta-Arrestin HTS for Positive Allosteric Modulators of the Human D2 Dopamine Receptor: Agonists. D(2) dopamine receptor (Homo sapiens), P14416. DiscoveRx PathHunter D2 beta-arrestin, luminescence, 90 min; 100% = 57 uM dopamine signal. activation, % (no concentration beside the values). hit rate 0.084% among 360,000; in the data active = activation above about 40%; inconclusive = about 15% to 40%; inactive = below about 15%; further: compound concentration not given in the record; the text of the record calls up to 30% inactive
Target sequence (P14416 whole entry, looked up): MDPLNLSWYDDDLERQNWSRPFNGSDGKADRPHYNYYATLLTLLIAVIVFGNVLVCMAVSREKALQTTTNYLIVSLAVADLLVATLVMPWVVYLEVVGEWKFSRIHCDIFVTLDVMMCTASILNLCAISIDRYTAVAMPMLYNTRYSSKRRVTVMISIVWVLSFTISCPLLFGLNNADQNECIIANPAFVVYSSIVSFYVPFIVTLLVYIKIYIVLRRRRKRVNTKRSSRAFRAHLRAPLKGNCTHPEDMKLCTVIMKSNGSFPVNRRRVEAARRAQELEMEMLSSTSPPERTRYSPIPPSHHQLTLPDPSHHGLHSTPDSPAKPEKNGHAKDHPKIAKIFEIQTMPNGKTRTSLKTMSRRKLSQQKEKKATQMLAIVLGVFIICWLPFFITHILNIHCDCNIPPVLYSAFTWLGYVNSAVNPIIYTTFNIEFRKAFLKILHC
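DiscoveRx PathHunter D2 beta-arrestin cells (2,100/well) attached overnight, then compound-stimulated 90 min at 37 C in HBSS/10 mM HEPES/0.1% Tween-20 buffer; beta-galactosidase complementation read by luminescence after 1 h at ambient temperature. Dopamine 57 uM final (EC100) as control.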
PINK1 expr mod = A Quantitative High throughput Screen to Identify Chemical Modulators of PINK1 Expression | PINK1 immunofluorescence, high-content cytometry, 24 h | Potency, µM (doses to about 76.6 µM), for the others: top-dose activation (PINK1 increase), hits mostly activators | hit rate 0.2% among 410,000 | AID 624263, 2012; active = well fitted activation curve with a large enough effect; inconclusive = small, poorly fitted or top-dose-only effect; inactive = flat fitted curve, though single readings scatter; cell line not stated here;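 further: potency means the concentration at half of the fitted maximal effect; % of control where 0% means no effect; nearly all actives have a fitted effect of over 65% in size; a mitochondrial uncoupler was the plate control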
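Fluorescence from anti-PINK1 antibody, together with nuclear and cell stains, was scanned on a laser-scanning cytometer. Before staining, stable-line cells were incubated 24 hours with compounds at 5 concentrations; primary antibody 12 h at 10 degrees C.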
TRPML1 agonist = qHTS for Agonists of the Human Mucolipin Transient Receptor Potential 1 (TRPML1). activation, % (test concentration not listed). AID 624414, 2012. TRPML1-expressing cells, Ca2+ dye fluorescence, FDSS; host cell line not named in the record; reference of the full effect not given here. Mucolipin-1 (Homo sapiens), Q9GZU1. hit rate 0.12% among 410,000; in the data active = activation above about 50%; inconclusive = about 30% to 50%; inactive = below about 30%; further: 0% is about no effect; the text of the record puts the active cut at 80%
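Cells: TRPML1-DL, 1X Tet inducer, ~16 h at 37 degrees C/5% CO2. Dye: ABD Ca8 no-wash + quencher, 45-90 min RT. Read: 10 s baseline, compound add, 110 s agonist phase; 54-4 EC80 (4uM final), 110 s antagonist phase.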
Six1-Eya2 blk = qHTS Assay for Inhibitors of the Six1/Eya2 Interaction. activity change, % (test concentration not listed). Homeobox protein SIX1 (Homo sapiens) + Protein phosphatase EYA2 (Homo sapiens), …. hit rate 0.56% among 360,000. AlphaScreen GST-Six1/His-Eya2 binding, biochemical; hits give low values; control for the full effect not named in the record; in the data active = activity change below about -65%; inconclusive = about -30% to -65%; inactive = above about -30%; further: on the % scale 0 is the no-effect control and ±100 the full control effect; compound concentration not given in the record
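Homogeneous AlphaScreen proximity assay pairing GST-Six1 with His-tagged Eya2 (added as 5X mix: 250 nM and 500 nM) in 50 mM Tris pH 8.0, 300 mM NaCl, 1 mM TCEP. Glutathione donor and nickel acceptor beads; 1 h, 37 °C, dark.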
D2 PAM = Beta-Arrestin HTS for Positive Allosteric Modulators of the Human D2 Dopamine Receptor: Potentiators. DiscoveRx D2 beta-arrestin cells, luminescence, 90 min; 100% = 57 uM dopamine signal. AID 624464, 2012. potentiation, % (no concentration beside the values). hit rate 0.23% among 360,000. D(2) dopamine receptor (Homo sapiens), P14416; active = potentiation of 50% or more; inconclusive = 30% to 50%; inactive = 30% or less;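 further: compound concentration not given in the record; tested on top of an EC20 dose of dopamine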
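PathHunter D2 cells, attached overnight at 37 deg C, received compound in DMSO plus dopamine at EC20 (50 nM final) for 90 min at 37 deg C. Beta-arrestin recruitment was read as luminescence after 1 h with detection reagent at ambient temperature.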
* marks the source's active call; other numbers are inactive results; ? = inconclusive; · = no result given; [ ] = dose if it differs, or a comment.

Preview:
SMILES	TRPML1 blocker	D2 agonist	PINK1 expr mod	TRPML1 agonist	Six1-Eya2 blk	D2 PAM
CC(=O)N1CCN(C(=O)c2ccc(-n3c(C)ccc3C)cc2)CC1	-16.5	7.6	-0.8%	0.7	8.2	-10.4
NC(=O)CN1C(=O)NC2(CCCc3sccc32)C1=O (stereo unspecified)	2.7	-4.9	1.5%	-0.3	-1.5	-8.7
COc1cc(NC(=O)CN(C)S(=O)(=O)c2ccc3c(c2)CCCC(=O)N3)cc(OC)c1OC	-23.5	·	0.1%	1.0	·	·
CC(=O)N/C(=N/c1nc(C)cc(C)n1)Nc1ccc(C)cc1C	7.0	-2.0	1.1%	-0.4	5.1	-3.0

The list itself (from the top)
SMILES	TRPML1 blocker	D2 agonist	PINK1 expr mod	TRPML1 agonist	Six1-Eya2 blk	D2 PAM
CC(=O)N1CCN(C(=O)c2ccc(-n3c(C)ccc3C)cc2)CC1	-16.5	7.6	-0.8%	0.7	8.2	-10.4
NC(=O)CN1C(=O)NC2(CCCc3sccc32)C1=O (stereo unspecified)	2.7	-4.9	1.5%	-0.3	-1.5	-8.7
COc1cc(NC(=O)CN(C)S(=O)(=O)c2ccc3c(c2)CCCC(=O)N3)cc(OC)c1OC	-23.5	·	0.1%	1.0	·	·
CC(=O)N/C(=N/c1nc(C)cc(C)n1)Nc1ccc(C)cc1C	7.0	-2.0	1.1%	-0.4	5.1	-3.0
CSc1nsc(SCC(=O)N2CCCCC2)n1	28.9	-1.4	-0.6%	0.0	-0.8	-4.3
Cc1nc(-c2ccc(C)c(N3CCN(C(=O)Nc4ccc(Br)cc4)CC3)c2)no1	-1.8	·	-4.4%	3.2	·	·
Cc1ccc(-c2cn(CCN)c(-c3ccc(Cl)nc3)n2)cc1	-7.8	-3.4	-0.2%	-0.4	-3.6	-17.9
CCOC(=O)/C(C#N)=N/Nc1c(S(=O)(=O)Cc2ccco2)csc1C(=O)OC	30.7	-5.5	2.5%	-1.0	-2.5	-20.0
CCN(CC)S(=O)(=O)c1ccc(-c2cc(C(=O)OC)sc2C(F)(F)F)cc1	76.2	0.0	-2.2%	1.6	0.5	-11.2
COC(=O)C1(C(=O)OC)NOC2C(=O)N(c3ccc(Cl)cc3Cl)C(=O)C21 (stereo unspecified)	3.8	-1.4	-0.8%[38.3 µM]	2.9	-1.6	-2.4
O=C(NCC1CCCO1)C(c1ccccn1)N(Cc1ccccc1Cl)C(=O)CN1C(=O)c2ccccc2S1(=O)=O (stereo unspecified)	-3.0	-3.4	-1.1%	0.0	49.5	1.6
COc1ccc(/C=C(\NC(=O)c2ccccc2)C(=O)NC2CCS(=O)(=O)C2)cc1 (stereo unspecified)	·	-3.6	-0.4%	·	0.9	-1.5
COc1ccc(NC(=O)Cc2c(O)c3ccccc3[nH]c2=O)cc1	-9.8	-1.1	1.1%	0.0	0.4	-16.2
COc1ccc(Cn2nnnc2C(c2cc3cc(C)cc(C)c3[nH]c2=O)N2CCOCC2)cc1 (stereo unspecified)	-9.6	0.2	2.3%[38.3 µM]	-0.2	-1.9	7.1
Cc1cccnc1NC(=O)c1ccc([N+](=O)[O-])o1	9.2	4.3	0.3%	-0.1	3.8	20.6

Complete entries, looked up by structure:
COc1cc(NC(=O)CN(C)S(=O)(=O)c2ccc3c(c2)CCCC(=O)N3)cc(OC)c1OC is entered as TRPML1 blocker: -23.5; D2 agonist: ·; PINK1 expr mod: 0.1%; TRPML1 agonist: 1.0; Six1-Eya2 blk: ·; D2 PAM: ·
Cc1nc(-c2ccc(C)c(N3CCN(C(=O)Nc4ccc(Br)cc4)CC3)c2)no1 is entered as TRPML1 blocker: -1.8; D2 agonist: ·; PINK1 expr mod: -4.4%; TRPML1 agonist: 3.2; Six1-Eya2 blk: ·; D2 PAM: ·

Limited to Six1-Eya2 blk, for 6 of the compounds above:
| smiles | Six1-Eya2 blk |
| --- | --- |
| CCN(CC)S(=O)(=O)c1ccc(-c2cc(C(=O)OC)sc2C(F)(F)F)cc1 | 0.5 |
| COC(=O)C1(C(=O)OC)NOC2C(=O)N(c3ccc(Cl)cc3Cl)C(=O)C21 (stereo unspecified) | -1.6 |
| O=C(NCC1CCCO1)C(c1ccccn1)N(Cc1ccccc1Cl)C(=O)CN1C(=O)c2ccccc2S1(=O)=O (stereo unspecified) | 49.5 |
| COc1ccc(/C=C(\NC(=O)c2ccccc2)C(=O)NC2CCS(=O)(=O)C2)cc1 (stereo unspecified) | 0.9 |
| COc1ccc(NC(=O)Cc2c(O)c3ccccc3[nH]c2=O)cc1 | 0.4 |
| COc1ccc(Cn2nnnc2C(c2cc3cc(C)cc(C)c3[nH]c2=O)N2CCOCC2)cc1 (stereo unspecified) | -1.9 |

Further results
SMILES	TRPML1 blocker	D2 agonist	PINK1 expr mod	TRPML1 agonist	Six1-Eya2 blk	D2 PAM
COc1cc(N=Cc2c(O)c3ccccc3oc2=O)c(OC)cc1Cl	-9.2	2.7	4.7%	0.9	8.4	-0.4
N#CC1(C#N)[C@@H](C(=O)C23CC4CC(CC(C4)C2)C3)C12CCOCC2	-8.6	1.8	0.6%	-0.5	4.2	-8.4
Cc1cccc(NC(=O)CCN2C(=O)c3ccccc3S2(=O)=O)c1C	-3.8	-7.6	-0.6%	-0.7	2.8	1.9
Cc1ccc(-n2c(=O)c3c4c(sc3n3c(C)nnc23)COC(C(C)C)C4)cc1 (stereo unspecified)	5.9	-2.0	-1.1%	-0.3	-3.0	3.2
O=C(Nc1ccc(F)c(Cl)c1)c1ccc2c(=O)n3c(nc2c1)CCCCC3	38.8	-1.4	-2.5%	-1.1	-2.6	2.2
O=C(N/N=C/c1cccnc1)/C(=C\c1cccs1)NC(=O)c1ccccc1	-18.9	0.0	0.6%	0.5	2.1	-8.1
COc1ccc(CCNC(=O)CSc2nnnn2-c2cccc(C(C)=O)c2)cc1OC	4.5	·	0.4%	2.4	·	·
CCCOc1ccccc1C1CC(=O)Nc2cc3c(cc21)OCO3 (stereo unspecified)	9.3	1.3	-3.8%	-0.2	-29.5	-8.1
Cc1nnc(SCC(=O)Nc2ccc(OC(F)F)c(Cl)c2)n(N)c1=O	-3.8	3.8	0.8%	2.4	-2.8	-0.7
CCOC(=O)N1CCC(n2c(=S)[nH]c3ccccc3c2=O)CC1	-27.1	-3.6	-1.8%	-0.1	0.2	1.9
CC1CCCCC1NC(=O)c1ccc(NC2=NC3CS(=O)(=O)CC3S2)cc1 (stereo unspecified)	13.9	-3.6	-2.2%	-0.4	0.4	-7.9
COc1ccc(CCNC(=S)Nc2ccccc2C)cc1	-6.9	-0.9	-1.1%	3.2	-5.1	-11.7
CC=Cc1cc2c(c(=O)o1)C(=O)C(O)C(C)O2 (stereo unspecified)	12.4	-8.6	22.9%	-0.5	3.9	-9.1
COc1ccc(-c2oc3ccc(N4CCOCC4)cc3c2C#CCO)cc1	12.7	7.0	2.3%	-1.2	-6.3	?
Cc1nn(CC(=O)N2c3ccccc3NC(=O)C2(C)C)c(C)c1[N+](=O)[O-]	15.1	0.0	1.7%	1.2	22.4	-3.3
COc1ccc(NC(=O)Cn2c(=O)oc3cc(S(=O)(=O)N4CCCC4)ccc32)cc1	6.9	-6.7	-0.2%	-0.5	-7.6	-1.8
CCCCCCCNC(=O)C1(CC2CC(c3cccc(Br)c3)=NO2)CCNCC1 (stereo unspecified)	-3.2	2.6	-1.6%	3.6	-0.8	0.4
COc1ccc(-c2cccc(NS(=O)(=O)c3ccc(NC(C)=O)cc3)c2)nn1	5.9	·	5.2%	-0.3	·	·
COc1ccc(S(=O)(=O)N2CN3CCN(C3)C2)cc1	-8.2	-1.8	-1.1%	0.1	-8.7	-30.8
Cc1cccc(C)c1-n1nnnc1C1c2ccccc2C(=O)N1CCCn1ccnc1 (stereo unspecified)	·	·	1.8%	-0.5	4.2	·
O=C(Nc1cnc2ccccc2c1)c1ccncc1	1.7	3.8	2.2%	-1.2	7.9	-5.9
C=C(C)c1cccc(C(C)(C)NC(=O)N2CC(C)OC(C)C2)c1 (stereo unspecified)	-2.2	-1.7	-1.1%	-0.4	5.3	-10.2
O=C(c1[nH]c(C(F)(F)F)nc1-c1ccccc1)N1CCN(c2ncccc2C(F)(F)F)CC1	·	-2.8	7.8%	-0.1	-0.5	-12.7

Not a hit list; overall some 1% were active at least once.
